Screening data: PubChem BioAssay, National Center for Advancing Translational Sciences (NCATS)
Menin MLL FP FL: qHTS Assay for Inhibitors Targeting the Menin-MLL Interaction in MLL Related Leukemias: Competition With Fluorescein Labeled MLL-derived Peptide. Fluorescence polarization, fluorescein-MLL peptide displacement from menin. FP activity change, % at 61.4 µM. 290,000 tested, under 10 active; inconclusive = falling polarisation curve, or a change in total fluorescence; inactive = total fluorescence flat and polarisation flat or rising; no compound was filed as active; the % refers to the polarisation; negative = inhibition;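 further: % of control where 0% means no effect; inhibitors lower the polarisation; unlabelled MLL peptide was the positive control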
gsp ag: qHTS for Agonist of gsp, the Etiologic Mutation Responsible for Fibrous Dysplasia/McCune-Albright Syndrome: qHTS. gsp mutant cells, cAMP HTRF, 30 min; control for the full effect not named in the record. Potency, µM (series often up to 76.9 µM), for inactives: at the top dose activation (cAMP increase), usual class: activators. hit rate 0.13% among 340,000. AID 624287, 2012; active = well fitted activation curve with a large enough effect; inconclusive = small, poorly fitted or top-dose-only effect, or another doubt; inactive = no such curve, though single readings can be large or run the other way; cell line not stated here;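 further: phosphodiesterase inhibitor Ro 20-1724 added with compounds to block cAMP breakdown; potency means the concentration at half of the fitted maximal effect; nearly all actives have a fitted effect of over 60% in size; about a fifth of the inactives were tested at one dose only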
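Cells stably selected in G418 were plated at 2000/well, grown 16-24 hr, then given compounds in DMSO with the PDE inhibitor […] (300 uM solution added) for 30 min at 37C; cAMP was read by HTRF.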
Sfp PPTase inh: qHTS Assay for Inhibitors of Bacillus subtilis Sfp phosphopantetheinyl transferase (PPTase); 4'-phosphopantetheinyl transferase ffp (Bacillus subtilis), Q9F4F7; Biochemical Sfp PPTase activity, qHTS; Potency, µM, inactives show max response, negative = inhibition, usual class: inhibitors; hit rate 3.5% among 310,000; AID 1490, 2009; active means well fitted inhibition curve with a large enough effect; inconclusive means small, poorly fitted or top-dose-only effect, or another doubt; inactive means no such curve, though single readings can be large or run the other way;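 further: the enzyme is Sfp with the accession as filed and its product quenches rhodamine fluorescence; potency means the concentration at half of the fitted maximal effect; 0% = enzyme reaction without inhibitor and -100% = no enzyme wells; top concentration of the series not given in the record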
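Compounds were incubated with enzyme (final 15 nM) for 15 min at room temperature before substrate addition started the reaction. Fluorescence at 525 nm excitation, 598 nm emission was recorded immediately and after 30 minutes.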
TRPV1 PAM: HTS Assay for Compounds that Act as Potentiators of the Vanilloid Receptor 1; Transient receptor potential cation channel subfamily V member 1 (Homo sapiens), Q8NER1; TRPV1-expressing cells, Fluo-8 calcium influx, capsaicin EC20 potentiation; host cell line not named in the record; control for the full effect not named in the record; potentiation, % at 8.33 µM; hit rate 0.02% among 320,000; active means potentiation above 80%; inconclusive means 30% to 80%; inactive means below 30%; further: 0% is about no effect
Target sequence (Q8NER1 whole entry, looked up): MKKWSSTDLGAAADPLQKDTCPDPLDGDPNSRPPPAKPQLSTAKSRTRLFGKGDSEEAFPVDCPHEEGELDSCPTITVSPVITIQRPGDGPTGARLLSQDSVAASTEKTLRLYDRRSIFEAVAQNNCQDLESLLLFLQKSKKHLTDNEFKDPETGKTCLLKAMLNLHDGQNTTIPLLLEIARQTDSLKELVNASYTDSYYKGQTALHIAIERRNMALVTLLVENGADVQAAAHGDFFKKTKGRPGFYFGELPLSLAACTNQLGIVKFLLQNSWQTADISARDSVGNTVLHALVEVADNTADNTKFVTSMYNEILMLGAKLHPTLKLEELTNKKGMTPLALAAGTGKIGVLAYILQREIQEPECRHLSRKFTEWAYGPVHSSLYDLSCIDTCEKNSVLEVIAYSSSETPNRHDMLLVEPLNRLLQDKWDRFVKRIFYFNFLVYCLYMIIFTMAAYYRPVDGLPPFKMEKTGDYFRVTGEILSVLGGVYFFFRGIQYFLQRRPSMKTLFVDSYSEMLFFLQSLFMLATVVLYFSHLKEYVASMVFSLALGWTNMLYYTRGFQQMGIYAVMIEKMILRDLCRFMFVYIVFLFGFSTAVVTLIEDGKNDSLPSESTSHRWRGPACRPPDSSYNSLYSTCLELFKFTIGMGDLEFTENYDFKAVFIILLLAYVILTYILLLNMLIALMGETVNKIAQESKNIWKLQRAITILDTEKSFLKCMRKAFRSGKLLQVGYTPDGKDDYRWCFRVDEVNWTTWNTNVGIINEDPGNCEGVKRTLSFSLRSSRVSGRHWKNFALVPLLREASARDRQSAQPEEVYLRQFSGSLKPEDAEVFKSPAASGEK
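Cells expressing TRPV1 were dye-loaded with Fluo-8 and read kinetically: 10 s baseline, 3 min after compound (agonist portion), then 2 min after EC20 capsaicin (allosteric enhancer portion). Calcium-bound dye fluorescence at 480/520 nm.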
D2 potentiator: Beta-Arrestin HTS for Positive Allosteric Modulators of the Human D2 Dopamine Receptor: Potentiators | potentiation, % (concentration not given with the values) | DiscoveRx D2 beta-arrestin cells, luminescence, 90 min; 100% = 57 uM dopamine signal | AID 624464, 2012 | hit rate 0.23% among 360,000 | D(2) dopamine receptor (Homo sapiens), P14416; active = potentiation of 50% or more; inconclusive = 30% to 50%; inactive = 30% or less;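 further: compound concentration not given in the record; tested on top of an EC20 dose of dopamine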
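PathHunter beta-arrestin assay in DiscoveRx D2 cells. Compounds were added with an EC20 of dopamine (50 nM final) for 90 min at 37 deg C. Luminescence was read 1 h after detection reagent, with 57 uM dopamine as the EC100 control.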
ClpP mod: qHTS Assay for Activators of ClpP | hit rate 1.9% among 340,000 | AID 651965, 2013 | Potency, µM (top dose mostly 57.5 µM), inactives show top-dose activity change, negative = active | purified B. subtilis ClpP, FRET peptide cleavage, 20 min; active = well fitted falling curve with a large enough effect; inconclusive = small, poorly fitted or top-dose-only effect; inactive = no such curve, though single readings can be large or run the other way; further: potency means the concentration at half of the fitted maximal effect; the source files actives as falling curves though it sought activators and does not explain the sign; nearly all actives have a fitted effect of over 65% in size; many hits overshoot -100%
Target sequence (P80244 whole entry, looked up): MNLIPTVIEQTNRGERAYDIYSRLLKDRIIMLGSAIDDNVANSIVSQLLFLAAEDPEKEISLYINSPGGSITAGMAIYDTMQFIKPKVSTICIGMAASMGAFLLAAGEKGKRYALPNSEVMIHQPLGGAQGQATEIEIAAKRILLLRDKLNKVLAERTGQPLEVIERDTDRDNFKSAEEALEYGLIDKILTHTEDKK
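Purified B. subtilis ClpP, 10 microg/mL final in Tris/HCl pH8 with KCl, BSA, glycerol and Tween-20, cleaved an Abz/nitrotyrosine-quenched decapeptide. Fluorescence (ex 320, em 430) was read at 0 and 20 min at room temperature. Delta was normalized to 5.8 microM ADEP and DMSO/no-enzyme controls.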
gsp antagonist: qHTS for Antagonists of gsp, the Etiologic Mutation Responsible for Fibrous Dysplasia/McCune-Albright Syndrome: qHTS. gsp-mutant cells, cAMP HTRF, 30 min; control for the full effect not named in the record. AID 624288, 2012. Potency, µM (top dose mostly 76.9 µM), for inactives: at the top dose activity change, negative = inhibition, most hits filed as inhibitors. hit rate 0.4% among 340,000; active = falling curve of any shape with a large fitted effect; inconclusive = falling curve, mostly with a smaller effect; inactive = flat or rising curve; cell line not stated here;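 further: intracellular cAMP measured with PDE inhibitor Ro 20-1724 present during compound exposure; potency means the concentration at half of the fitted maximal effect; on the % scale 0 is the no-effect control and ±100 the full control effect; nearly all actives have a fitted effect of over 65% in size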
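Cells in G418 medium, seeded 16-24 h, 37C; buffer exchange to DPBS + 1 mM CaCl2, 0.5 mM MgCl2, 0.05% BSA; cpds in DMSO + […] (300 uM stock), 30 min 37C; HTRF cAMP detection.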
The depositor's hits bear a star; ? = inconclusive; nt = not tested or not shown; & = joins results of further samples; [ ] = dose if it differs, or a comment.

SMILES	Menin MLL FP FL	gsp ag	Sfp PPTase inh	TRPV1 PAM	D2 potentiator	ClpP mod	gsp antagonist
Cc1cc(NC(=O)C2=C(O)c3ccccc3S(=O)(=O)N2C)no1	-0.9	nt	-11%&11%&5%	13	-8	1.1%	-7%
O=c1c2c3c(sc2nc2n1CCCCC2)C(O)CCC3 (stereo unspecified)	2.2	2%[15.4 µM]	-9%	4	-18	?	-12%
COc1ccc(-c2ccc(=O)n(CC(=O)Nc3nnc(C(C)C)s3)n2)cc1OC	4.3	45%	18%	20	-2	0.5%	10%
Cc1c(Cl)cccc1NC(=O)CCN1CCC(C(N)=O)CC1	-3.2	-26%	8%	-1	-3	-0.9%	12%
Cc1ccc[n+](-c2nc([O-])sc2/C=N/Nc2ccc([N+](=O)[O-])cc2)c1	nt	-32%[inhibitor]	-8%	-1	-6	nt	4%
Cc1cc(CNC(=O)CC2C(=O)NCCN2Cc2ccc(-c3ccccc3)cc2)nn1C (stereo unspecified)	-12	7%	12%	1	-13	-4.1%	1%
COC(CCN(C)C)(c1ccccc1)c1ccccc1	-0.6	-20%	2%	0	-11	-0.6%	6%
O=C(O)c1ccc(C=NN=Cc2ccco2)cc1	nt	-13%	nt	nt	1	-3.8%	4%
CCOc1ccc(OCC(=O)Nc2nccs2)cc1	4.7	3%	7%	0	-1	nt	1%
Cc1ccc2[nH]c3c(NCc4ccco4)ncnc3c2c1	0.6	?	-10%	-7	-25	18µM*	-36%
CCn1c(SCC(=O)Nc2ccccc2C)nc2nc3c(cc2c1=O)COC(C)(C)C3	3.1	30%	17%	1	4	-6.8%	-6%
Cc1cccc(NC2=CC(=O)CC(C)(C)C2)c1C	0.3	3%	15%	-3	2	0.3%	-5%
CC(NC(=O)c1ccc(Br)o1)C1CC2CCC1C2 (stereo unspecified)	-2.6	19%	5%	-19	-12	-2.6%	7%
COc1ccc(/C=N/NS(=O)(=O)c2ccc(C)cc2)cc1OC(=O)c1ccc(C)cc1	2.7	-40%[inhibitor]	23%	-23	6	-3.0%	-13%[15.4 µM]
COc1ccccc1OCCNC(=O)CN1C(=O)NC2(CCCCC2)C1=O	nt	-1%	nt	?	0	-1.6%	5%
CCn1cc2nc(SCC(=O)Nc3ccc(F)cc3F)n(Cc3ccccc3)c(=O)c2n1	-0.8	4%	7%	-2	-9	-3.4%	8%
CS(=O)(=O)N1CCc2cc(C(=O)Nc3ccc(Br)cc3)ccc21	-1.6	?	14%	-7	-8	-3.5%	5%
COC(=O)C(C(=O)OC)[C@@H]1C=C[C@H](C[N+](=O)[O-])N(C(C)=O)C1	nt	nt	nt	nt	-4	-2.0%	-3%
CC1CN(CCC(=O)Nc2ccccc2F)CC(C)O1 (stereo unspecified)	2.9	-11%	3%	-3	-2	0.6%	10%
O=C(CC(c1cccs1)S(=O)(=O)c1ccccc1)c1ccc(F)cc1 (stereo unspecified)	9.7	?	-2%	-8	-16	0.8%	15%
CC(C)c1nnc(NC(=O)c2nc(S(=O)(=O)Cc3ccccc3)ncc2Cl)s1	nt	-3%[15.4 µM]	-7%	9	-10	0.0%	25µM*
CC1CCCN(S(=O)(=O)c2cccc([N+](=O)[O-])c2)C1 (stereo unspecified)	1.7	-3%	15%	?	0	-2.9%	2%
CSC1=N/C(=C\c2ccc(Br)o2)C(=O)S1	?	-17%	-7%	1	-16	-2.6%	-1%
CCCCOC(=O)c1ccccc1N1C(=O)C2C3CCC(C3)C2C1=O (stereo unspecified)	-0.7	-2%	5%	-13	-8	-0.5%	7%
CC1CCCCN1C(=O)CCc1nnc(Cc2c[nH]c3ccccc23)o1 (stereo unspecified)	-0.4	-47%[inhibitor]	9%	-1	6	-0.3%	6%
CCOc1cc(C=O)ccc1OCCn1c([N+](=O)[O-])cnc1C	2.6	1%[15.4 µM]	8%	-14	-5	nt	-2%
Cc1cc(NCCCN(C)C)n2c(nc3ccccc32)c1C#N	13	11%[15.4 µM]	0%	-4	-1	0.6%	-37%
O=C(COc1ccc(-c2ccccc2)cc1)N/N=C/c1cccnc1	nt	6%	-1%	0	-4	1.0%	8%
Cc1ccc(NC(=O)CSc2nc3[nH]ncc3c(=O)[nH]2)c(C)c1	-5.3	10%[15.4 µM]	-36%	14	3	nt	1%
O=C(c1ccc(CSc2ccc(Cl)cc2)cc1)N1CCOCC1	0.7	-2%	12%	-3	0	1.5%	6%
COc1ccc(Nc2nc(C(=O)NCc3ccco3)cs2)cc1	-1.1	-1%	2%	-12	-12	1.0%	-16%
Cc1cc(C)nc(SCCN2CCCCC2)n1	nt	?	nt	nt	-12	nt	2%
OCCN1CCN(C(=S)c2ccc(Cl)c(Cl)c2)CC1	0.2	21%	3.2µM*	-12	-16	1.0%	9%
O=C(C1CCC1)N1CCc2cc(S(=O)(=O)NC3CCCc4ccccc43)ccc21 (stereo unspecified)	0.3	-6%	11%	2	-8	1.4%	13%
Nc1nc(Nc2ccccc2F)nc(N2CCCC2)c1[N+](=O)[O-]	-0.8	?	11%	3	0	nt	8%
CCC(C(=O)Nc1ccncc1)c1ccccc1 (stereo unspecified)	-0.6	-5%	-4%	3	-7	-1.9%	6%
CC(C)(C)c1nc2scc(-c3ccc(Cl)cc3)c2c(=O)o1	0.8	0%	10%	2	12	1.2%	-2%
COc1ccc(Br)cc1CN(C)C(=O)C1CC(=O)N(C2CCCC2)C1 (stereo unspecified)	nt	-7%[15.4 µM]	nt	nt	-11	1.2%	5%
Cc1ccsc1/C=C1/SC(N2CCOCC2)=NC1=O	-2.3	nt	14%	-2	nt	nt	nt
C=CC[C@H](CC(=O)OC(C)(C)C)C(=O)OC[C@@H]1CCCN1C(=O)[C@@H](CC=C)CC(=O)N[C@H](CO)Cc1ccccc1	nt	-8%	nt	nt	-1	-2.1%	2%

Looked up one by one from the entries so far, 2 records:
SMILES	Menin MLL FP FL	gsp ag	Sfp PPTase inh	TRPV1 PAM	D2 potentiator	ClpP mod	gsp antagonist
COc1ccccc1OCCNC(=O)CN1C(=O)NC2(CCCCC2)C1=O	nt	-1%	nt	?	0	-1.6%	5%
CC(C)(C)c1nc2scc(-c3ccc(Cl)cc3)c2c(=O)o1	0.8	0%	10%	2	12	1.2%	-2%

The list continues:
SMILES	Menin MLL FP FL	gsp ag	Sfp PPTase inh	TRPV1 PAM	D2 potentiator	ClpP mod	gsp antagonist
O=C(NCc1ccccn1)C1CCC(=O)N(Cc2ccc(Cl)cc2)C1 (stereo unspecified)	1.2	-1%	6%	-4	-4	-1.0%	10%
Cn1c(NC(=O)c2ccc(S(=O)(=O)N3CCCCC3)cc2)cc(=O)n(C)c1=O	-2.1	7%	2%	3	-8	-2.5%	-4%
COc1ccc(CCNc2nc(C)cc(=O)[nH]2)cc1OC	nt	-11%	nt	nt	13	-0.7%	9%
O=C(O)C(CCCCN1C(=O)c2ccccc2C1=O)N1C(=O)c2ccccc2C1=O (stereo unspecified)	0.6	0%	-4%	-2	-3	-1.5%	4%
COc1ccc(OC)c(NC(=O)CCN2CCN(Cc3ccccc3)CC2)c1	3.8	-12%	4%	-4	-14	-1.1%	-2%
CCOc1ccc(OCC(=O)OCC(=O)N2CCN(S(=O)(=O)c3ccc(C)cc3C)CC2)cc1	nt	19%	nt	nt	-5	-0.2%	15%
CC(Nc1cccc(F)c1)C(=O)Nc1ccc(S(N)(=O)=O)cc1 (stereo unspecified)	0.5	24%[15.4 µM]	17%	-1	-5	nt	nt
Fc1ccc2c(c1)C1OCCCC1C(c1ccccc1)N2 (stereo unspecified)	1.8	9%[15.4 µM]	8%	-6	-7	-1.0%	-1%
O=C(Oc1cccc2cccnc12)c1cccc(-n2cnnn2)c1	7.5	-2%	-2%	1	21	3.2%	8%
CC(=O)NC(Cc1c[nH]c2ccccc12)C(=O)O (stereo unspecified)	-7.9	nt	23%	0	-20	-1.5%	4%
COc1ccc(C2CCCN2C(=O)c2cccs2)cc1 (stereo unspecified)	0.0	10%	17%	15	-8	-0.1%	13%
CCOc1cc(C2C(C(=O)OC(C)C)=C(C)NC3=C2C(=O)CCC3)cc([N+](=O)[O-])c1O (stereo unspecified)	-1.3	-35%[inhibitor]	16%	-4	-7	nt	-14%
COc1ccccc1-c1nnc(NC(=O)CCS(=O)(=O)c2ccc(F)cc2)o1	nt	?	nt	nt	-22	-10%	nt
CCN(CC(F)(F)C(F)F)S(=O)(=O)c1ccc(NC(=O)OC)cc1	-0.6	-24%	23%	-5	19	0.7%	-4%
O=S(Cc1ccccc1)Cc1ccccc1	nt	nt	nt	nt	-21	-1.4%	6%
O=C1CSC(c2ccccc2Br)N1c1ccc(Cl)cn1 (stereo unspecified)	-5.5	-5%[15.4 µM]	0%	-9	10	-13%	-13%
CC(C)c1ccc(S(=O)(=O)/N=C2\C=C(NS(=O)(=O)c3ccccc3)C(=O)c3ccccc32)cc1	?	13%	-17%	5	0	nt	?
CCOc1ccc(CCNC(=O)CCC(=O)N2CCOc3ccccc32)cc1OCC	-2.8	-45%[inhibitor]	13%	21	-13	-0.5%	2%
CCOc1ccc(-c2c(C(=O)N/N=C/C3CCCCC3)nnn2-c2nonc2N)cc1	-3.2	-24%	2%	-8	2	-3.2%	10%
Cc1cc(C)n2c(-c3ccccc3Cl)nnc2n1	0.1	-3%	31%	15	0	28µM*	5%
O=C(CC1SCCNC1=O)Nc1cccc([N+](=O)[O-])c1 (stereo unspecified)	-0.2	0%	12%	-3	-1	0.0%	-5%

Hits appear at their usual frequency. About 5.1% of those tested had a hit in this group.
